Compound activity deposited in PubChem by National Center for Advancing Translational Sciences (NCATS).
2A StopGo = lowers the luciferase signal of an FMDV 2A StopGo reporter; Potency, µM (top dose mostly 57.9 µM), without a hit: top-dose signal change, negative = less light; AID 1159524; 410,000 tested, 1.2% active; human cells with a luciferase reporter of 2A StopGo recoding; control for the full effect not named in the record; active = well fitted falling curve with a large enough effect; inconclusive = small, poorly fitted or top-dose-only effect; inactive = no such curve, though single readings can be large or run the other way; tested in HEK293T cells; note: % is set by controls: 0 for no effect and ±100 for the full control effect; nearly all actives have a fitted effect of over 45% in size; luciferase light after 4 h
SARS PLpro yeast = blocks SARS-CoV papain-like protease in a yeast assay; Potency, µM (titrated, usually from 32.9 µM), for the others: at the top dose activity, positive = growth rescue; 330,000 tested, 0.19% active; S. cerevisiae expressing SARS-CoV PLpro, growth rescue; control for the full effect not named in the record; note: 0% is about no effect; nearly all actives have a fitted effect of over 55% in size; growth read by luminescence after 48 h
LASV entry inh = inhibitors of Lassa virus binding or cell entry. Lassa virus pseudotype entry inhibition, cell reporter; control for the full effect not named in the record. Potency, µM (titrated, usually from 37.9 µM), inactives show top-dose activity change, negative = inhibition, usual class: inhibitors. 300,000 tested, 1.2% active. AID 540256; active means well fitted inhibition curve with a large enough effect; inconclusive means small, poorly fitted or top-dose-only effect, or effect the other way; inactive means flat fitted curve, though single readings scatter; tested in HEK293 cells; note: % is set by controls: 0 for no effect and ±100 for the full control effect; nearly all actives have a fitted effect of over 50% in size; luciferase read-out
Cruzain inh Det = inhibitors of Trypanosoma cruzi cruzain with detergent | AID 1478 | purified cruzain, Z-FR-AMC fluorescence, 0.01% Triton | Potency, µM, inactives show max response, negative = inhibition, usual class: inhibitors | 200,000 tested, 0.43% active; active = well fitted curve in the direction sought with a large enough effect; inconclusive = small, poorly fitted or top-dose-only effect, or another doubt; inactive = no such curve, though single readings can be large; an effect the other way counts as inactive or inconclusive;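 note: plate controls were neutral wells for no effect and buffer without enzyme for full effect; nearly all actives have a fitted effect of over 40% in size; top concentration of the series not given in the record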
Target sequence (P25779 123-467 limits assumed): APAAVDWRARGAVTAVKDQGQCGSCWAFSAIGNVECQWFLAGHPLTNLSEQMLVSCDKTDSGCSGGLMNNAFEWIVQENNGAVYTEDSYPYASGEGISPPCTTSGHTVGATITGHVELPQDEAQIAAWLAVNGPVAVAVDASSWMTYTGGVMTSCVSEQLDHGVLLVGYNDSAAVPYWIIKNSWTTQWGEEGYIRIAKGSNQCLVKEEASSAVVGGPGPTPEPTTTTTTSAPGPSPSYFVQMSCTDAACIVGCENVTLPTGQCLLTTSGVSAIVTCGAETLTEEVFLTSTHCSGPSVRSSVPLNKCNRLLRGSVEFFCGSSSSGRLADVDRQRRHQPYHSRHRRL
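Steps: dispense cruzain (1.5 nM final) in acetate buffer pH 5.5 with DTT and 0.01% Triton X-100; pin-transfer compounds; incubate 15 min RT; add Z-FR-AMC (2 uM final); read fluorescence every 30 s, using the 60 s intensity change.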
Cruzain noTriton = inhibitors of Trypanosoma cruzi cruzain without detergent; P25779; purified cruzain, Z-FR-AMC fluorescence, no detergent; Potency, µM, for inactives: max response, negative = inhibition, most hits filed as inhibitors; 200,000 tested, 2.3% active; AID 1476; active = well fitted curve in the direction sought with a large enough effect; inconclusive = small, poorly fitted or top-dose-only effect, or another doubt; inactive = no such curve, though single readings can be large; an effect the other way counts as inactive or inconclusive;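 note: plate controls were enzyme without inhibitor for no effect and buffer without enzyme for full effect; nearly all actives have a fitted effect of over 40% in size; top concentration of the series not given in the record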
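Purified cruzain at 1.5 nM, pre-incubated 15 min with compound at room temperature in 100 mM sodium acetate pH 5.5, 5 mM DTT, 0.00005% Triton X-100. Reaction started with 2 uM Z-FR-AMC; AMC fluorescence increase over 60 s gives rate.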
RE007 growth inh = less growth of the S. pombe RE007 Vpr strain; 360,000 tested, 0.21% active; Potency, µM (doses to about 92.2 µM), for the others: top-dose activity change, negative = less growth; AID 651644; S. pombe RE007 Vpr strain, BacTiter-Glo ATP luminescence, 24 h; control for the full effect not named in the record; active = well fitted falling curve with a large enough effect; inconclusive = small, poorly fitted or top-dose-only effect; inactive = no such curve, though single readings can be large or run the other way;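 note: % is set by controls: 0 for no effect and ±100 for the full control effect; nearly all actives have a fitted effect of over 50% in size; the assay follows cell death caused by Vpr and the record does not say whether a fall means rescue or toxicity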
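Fission yeast strain RE007, carrying one chromosomally integrated HIV-1 vpr copy, was seeded at OD 0.01 in PMG+AL medium with 23 nL pinned compound. After 24 h at 30 °C and 99% humidity, viability was read by BacTiter-Glo luminescence.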
Marburg entry inh = blocks Marburg virus binding to or entry into cells; Marburg virus pseudotyped entry inhibition, cell reporter; control for the full effect not named in the record; about a third of the inactives were read at about 46 µM; Potency, µM (titrated, usually from 37.8 µM), for the others: at the top dose activity change, negative = inhibition, most hits filed as inhibitors; 300,000 tested, 1.8% active; AID 540276; active = well fitted inhibition curve with a large enough effect; inconclusive = small, poorly fitted or top-dose-only effect, or effect the other way; inactive = flat fitted curve, though single readings scatter; tested in HEK293 cells; about a fifth of its hits are not listed in these tables; note: % is set by controls: 0 for no effect and ±100 for the full control effect; luciferase read-out
NS1 function inh = influenza NS1 inhibition; S. cerevisiae slowed by influenza A NS1, growth recovery by OD600; Potency, µM (highest dose often 46.1 µM), without a hit: at the highest dose activity, positive = more growth; AID 2326; 270,000 tested, 0.4% active; note: actives are rising curves; nearly all actives have a fitted effect of over 50% in size
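Compounds were scored for reversing the slow growth caused by influenza A NS1 in S. cerevisiae, measured by optical density at 600 nm. Assay medium contained 2% galactose at pH 6.0; NS1-free yeast of the same strain were the positive control.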
Active calls of the source: *; ? = inconclusive; . = no result given; & = joins results of further samples; [ ] = dose if it differs, or a comment. Unless noted, calls come from the whole dose curve; as a rule, active means well fitted rising curve with a large enough effect; inconclusive means small, poorly fitted or top-dose-only effect; inactive means no such curve, though single readings can be large or run the other way. Potency is the fitted concentration of half-maximal effect. Compounds were not picked by outcome; overall some 4.7% were active at least once.

SMILES | 2A StopGo | SARS PLpro yeast | LASV entry inh | Cruzain inh Det | Cruzain noTriton | RE007 growth inh | Marburg entry inh | NS1 function inh
COc1ccc(N(C(=O)c2snc(C(N)=O)c2N)C(C(=O)NCc2ccc(F)cc2)c2ccc(O)cc2)cc1 (centres undefined) | 30%[activator] | 6% | 2.8µM* | . | . | -23% | ? | 10%
O=C(Cn1c(SCC(=O)N2CCc3ccccc3C2)nc2ccccc21)NC1CCCC1 | 13% | 0% | 20% | 6.9% | -9% | 0% | -10% | -17%
CCCc1ccc(OC(C)c2nc(-c3ccc(-n4cccc4)cc3)no2)cc1 (centres undefined) | ? | . | -15%[46.1 µM] | 0.7% | -21% | . | 1%[46.1 µM] | .
CCOC(=O)/C=C/C(=O)Nc1ccc(S(=O)(=O)N2CCCCCC2)cc1 | ? | 1% | ? | . | . | -25% | 2%[46.1 µM] | -2%
CN(C(=O)c1cccc(NC(=O)c2ccco2)c1)c1ccccc1 | -12% | 5% | . | . | . | -6% | . | 8%
CC1CCN(c2ccc3nnc(CCC(=O)NCC(C)c4ccccc4)n3n2)CC1 (centres undefined) | -22% | 9% | . | . | . | -8% | . | -15%
COCCN(C(=O)CNC(=O)c1ccco1)C(C(=O)NC1CCCC1)c1ccc(OC)c(OC)c1 (centres undefined) | -7% | 10% | 19% | . | . | 1% | 3%[46.1 µM] | 9%
O=C(c1oc2ccccc2c1CSCc1ccccc1)N1CCN(c2ncccn2)CC1 | ? | -6% | -17% | -5.8% | 12% | -1% | -27%&-27% | 11%
COC(=O)c1ccc(NC(=O)CCc2c(C)nc3c(-c4ccccc4)c(C)nn3c2C)cc1 | -21% | . | 1%[46.1 µM] | -2.5% | 19% | . | -7%[46.1 µM] | .
O=C(O)/C(=C\c1ccc(-c2ccc(F)cc2)o1)c1ccccc1 | 29% | -7% | ? | . | . | 1% | ? | .
O=c1cccc2n1CC1CC2CN(Cc2c(F)cccc2Cl)C1 (centres undefined) | -13% | 7% | 2% | 6.4% | 0% | -5% | -2% | 3%
CCOC(=O)/C=C/C(=O)OCC(=O)Nc1ccc(C)cc1 | -16% | -4% | 13% | . | . | ? | 12% | .
O=C(NCCCN1CCCC1=O)c1ccc(NS(=O)(=O)c2cccc([N+](=O)[O-])c2)cc1 | -8% | -2% | 1% | . | . | 10% | -1%[46.1 µM] | .
C=CCn1c(=S)[nH]c2cc(-c3ccccc3)sc2c1=O | 0% | 0% | 3%[46.1 µM] | . | . | 5% | 12%[46.1 µM] | ?
CCNS(=O)(=O)c1ccc(CCC(=O)N2CCc3ccccc3C2)cc1 | 69%[activator] | 1% | . | . | . | -6% | . | 5%
COc1ccc(N=C2SC(CC(=O)Nc3cccc(Cl)c3)C(=O)N2Cc2ccco2)cc1 (centres undefined) | ? | -25% | ? | -3.0% | ? | 2% | ? | -29%
COc1ccc(C(=O)/C=C/NCc2ccc(C)cc2)cc1 | 13% | . | ? | . | . | -24% | -3% | .
CCOC(=O)c1c(C)[nH]c(C(=O)C(C)N2CCCC2)c1C (centres undefined) | 4% | 5% | -1% | . | . | 1% | 6%[46.1 µM] | .
O=C(CN1CCN(Cc2ccccc2)CC1)N/N=C/c1c[nH]c2ccccc12 | -5% | -5% | ? | -3.5% | 6% | -18% | ? | -3%
Cc1ccc(-c2noc(CCC(=O)NCCCN3CCN(c4ccc(F)cc4)CC3)n2)cc1 | ? | 1% | -1% | 0.3% | -5% | 17% | 5%&5% | -4%
Cc1cccc(C)c1NC(=O)C1(N(Cc2ccco2)C(=O)CC2NC(=O)NC2=O)CCCC1 (centres undefined) | -14% | -6% | 1% | 6.1% | 4% | 22% | -1% | 2%
COCCSc1nnc(NC(=O)C2CC(=O)N(c3ccc(Cl)cc3)C2)s1 (centres undefined) | -12% | 7% | -25% | . | . | -2% | ? | .
COc1ccc(CNCCc2ccc(Cl)cc2Cl)cc1 | -18% | -1% | -8% | . | . | -5% | 13% | 8%
CCN(CC)S(=O)(=O)c1ccc(/C=C/C(=O)Nc2ccc(N3CCOCC3)cc2)cc1 | ? | -1% | . | . | . | -15% | -6% | 5%
FC(F)(F)c1ccc2c(c1)NCC1CCCN21 (centres undefined) | -14% | -1% | 6% | . | . | -21% | -8%[46.1 µM] | 16%

Four compounds already listed, ordered by length of the SMILES, lowest first:
SMILES | 2A StopGo | SARS PLpro yeast | LASV entry inh | Cruzain inh Det | Cruzain noTriton | RE007 growth inh | Marburg entry inh | NS1 function inh
CCOC(=O)c1c(C)[nH]c(C(=O)C(C)N2CCCC2)c1C (centres undefined) | 4% | 5% | -1% | . | . | 1% | 6%[46.1 µM] | .
CCNS(=O)(=O)c1ccc(CCC(=O)N2CCc3ccccc3C2)cc1 | 69%[activator] | 1% | . | . | . | -6% | . | 5%
O=C(CN1CCN(Cc2ccccc2)CC1)N/N=C/c1c[nH]c2ccccc12 | -5% | -5% | ? | -3.5% | 6% | -18% | ? | -3%
Cc1ccc(-c2noc(CCC(=O)NCCCN3CCN(c4ccc(F)cc4)CC3)n2)cc1 | ? | 1% | -1% | 0.3% | -5% | 17% | 5%&5% | -4%

Additional entries follow.
SMILES | 2A StopGo | SARS PLpro yeast | LASV entry inh | Cruzain inh Det | Cruzain noTriton | RE007 growth inh | Marburg entry inh | NS1 function inh
CC1=CC(C)(C)NC(=S)N1c1cc(C)cc(C)c1 | -15% | 9% | 11% | . | . | 1% | -5%[46.1 µM] | .
CCc1ccccc1NC(=O)N1CCCn2nc(C)cc21 | 15% | . | 0%[46.1 µM] | -0.2% | -3% | . | -10%[46.1 µM] | .
COc1ccc2c(c1)C1NC(=S)NC(C)(O2)C1C(=O)Nc1ccc(C)cc1C (centres undefined) | -29% | -3% | 8% | -2.5% | 17% | 14% | 19% | 1%
Oc1sc(C=Nc2ccc(F)cc2)c2ccccc12 | 41%[activator] | 3% | -18% | -5.5% | -4% | 11% | -13% | 4%
OC(C#CCN1CCCCC1)c1ccccc1 (centres undefined) | -2% | 6% | 1% | 11% | -12% | -1% | -6% | 2%
N[C@H](C(=O)O)[C@H]1C[C@@H]1C(=O)O | -17% | . | ? | -2.2% | 4% | . | ? | 1%
COc1ccc(S(=O)(=O)NCC2CCCN(C(=O)c3ccco3)C2)cc1 (centres undefined) | 66%[activator] | 1% | -1% | . | . | -5% | 2%[46.1 µM] | -2%
O=C(CCSc1nc(-c2ccco2)cc(C(F)(F)F)n1)Nc1ccc2c(c1)OCO2 | 2% | -8% | 9% | -0.1% | -15% | 7% | -14%&-14% | -55%
COc1ccccc1C(=O)OCc1nc(N)nc(Nc2ccccc2C)n1 | 19% | -14% | ? | -2.1% | -9% | -21% | ? | -4%
CN(C)c1ccc(C(=O)c2ccc(N(C)C)c3ccccc23)cc1 | 42%[activator] | -10% | 0.25µM* | -8.2% | -7% | -5% | ? | 19%
CC1CC(C)CN(C(=O)CNC(=O)c2ccc3ccccc3c2)C1 (centres undefined) | -1% | ? | . | . | . | -14% | . | 0%
CCN1CCN(CCCNC(=O)CNC(=O)c2nn(-c3ccc(OC)cc3)c(=O)c3ccccc23)CC1 | -5% | 1% | 1% | . | . | 5% | 8% | -4%
C/C(CC(=O)Nc1ccc(Cl)c(C(F)(F)F)c1)=N\NC(=O)c1ccccc1O | ? | -22% | ? | -17% | -29% | -16% | 18µM* | -22%
CC(=O)N1N=C2c3ccccc3CCC2C1c1cccs1 (centres undefined) | -16% | 1% | . | . | . | 9% | . | 8%
CC(C(=O)N1CCOCC1)N1c2cccc3cccc(c23)S1(=O)=O (centres undefined) | . | 1% | -3% | 1.3% | -6% | 5% | 2% | -2%
CN(C)c1cc2c(c(N(C)C)c1)C(=O)c1ccccc1C2=O | 6% | -9% | 22% | -16% | -4% | -26% | 25% | -15%
O=C1Nc2ccccc2C1=Nc1ccc2[nH]c3ccccc3c2c1 | 0% | . | -2% | . | . | -3% | 1% | .
CN(C(=O)c1cccs1)C1(C)CCS(=O)(=O)C1 (centres undefined) | -30% | 1% | . | . | . | -9% | . | 11%
Brc1ccc(-c2cn3c(n2)CCc2ccc4cccnc4c2-3)cc1 | -2% | -2% | -2% | 0.6% | ? | -4% | -1% | -47%
CSCC[C@H](NC(=O)COc1cc2c(c3oc(=O)c(C)c(C)c13)CCC(C)(C)O2)C(=O)O | 2% | 2% | 11%[46.1 µM] | . | . | -2% | 10%[46.1 µM] | 5%
COCCCNC(=S)NNC(=O)c1ccoc1C | -7% | -5% | 0% | 7.7% | 7% | -15% | 21% | 3%
CC(=O)N1c2ccc(S(=O)(=O)N3CCC(C(=O)N4CCN(c5cc(Cl)ccc5C)CC4)CC3)cc2CC1C (centres undefined) | ? | 1% | ? | . | . | 2% | ? | 24%
O=C(COc1ccccc1N1C(=O)c2ccccc2C1=O)c1ccc(Cl)cc1 | 5% | -12% | 1% | -5.3% | 14% | 6% | -12% | -11%
Cc1nc2ccc(NC(=O)Cc3ccccc3F)cc2s1 | 0% | 1% | . | . | . | -1% | ? | -4%
COc1ccc(NC(=O)c2cccnc2N2CCCC2)cc1 | -12% | 7% | -14% | 0.6% | -10% | -23% | ? | -6%
O=C(N/N=C/c1ccc(Cl)cc1Cl)c1ccc2nc[nH]c2c1 | 28% | 9% | . | . | . | 9% | . | -3%
CCOc1ncccc1C(=O)OCC(=O)Nc1ccc(C)c(S(=O)(=O)N2CCOCC2)c1 | 19% | -6% | 17%[46.1 µM] | 0.0% | 4% | 12% | -5%[46.1 µM] | 12%
O=C(Cc1ccc(Cl)cc1)Nc1ccc2oc(-c3ccccc3)nc2c1 | 3% | . | 4%[46.1 µM] | -1.7% | -5% | . | . | .
